# rRNA inh HTS: inhibitors of bacterial rRNA selective over humanized ribosomes; E. coli WT GFP vs humanized-ribosome RFP mutants, fluorescence, 24 h; active compounds read low; DMSO median 0, no signal -100; GFP signal change (wild-type ribosome), % (no concentration beside the values); actives 1.6% (n = 350,000); AID 720706;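 active means significant combined selectivity score with lowered wild-type GFP, culture density cut under 30%, mutant RFP and density less affected; inactive means any of these conditions unmet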; further: one replicate is shown; some compounds called inactive have numbers as strong as hits
# AF4-AF9 inh: MLL-AF4/AF9 protein interaction inhibition; P42568; AlphaScreen, biotin-AF4 peptide binding to FLAG-AF9; inhibition, % at 10 µM; actives 0.47% (n = 350,000); AID 651704;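 active means every replicate reaching a set inhibition limit, whatever the replicate mean, cut at about 25% in these data; inconclusive means mean inhibition reaches that limit but some replicates miss it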;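 further: 0% = plate neutral control median and 100% = total signal loss; the record names both 10 and 1 µM as test concentration; the first replicate is given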
# Target sequence (P42568 whole entry, looked up): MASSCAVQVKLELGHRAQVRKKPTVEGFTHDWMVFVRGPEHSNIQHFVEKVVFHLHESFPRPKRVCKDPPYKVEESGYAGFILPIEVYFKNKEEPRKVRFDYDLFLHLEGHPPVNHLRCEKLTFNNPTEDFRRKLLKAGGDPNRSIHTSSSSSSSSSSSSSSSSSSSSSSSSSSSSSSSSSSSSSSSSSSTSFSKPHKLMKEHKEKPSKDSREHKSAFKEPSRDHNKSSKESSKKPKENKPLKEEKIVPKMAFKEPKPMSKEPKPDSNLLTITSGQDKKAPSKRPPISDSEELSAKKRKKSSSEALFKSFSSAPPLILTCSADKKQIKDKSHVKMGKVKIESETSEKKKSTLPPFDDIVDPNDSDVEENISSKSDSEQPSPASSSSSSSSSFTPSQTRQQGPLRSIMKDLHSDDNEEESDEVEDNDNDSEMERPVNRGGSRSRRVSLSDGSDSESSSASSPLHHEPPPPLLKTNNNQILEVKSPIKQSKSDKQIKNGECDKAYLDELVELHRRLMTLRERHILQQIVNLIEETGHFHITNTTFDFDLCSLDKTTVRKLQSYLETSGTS
# FGF22 binding: shifts melting point of recombinant human FGF22; Q9HCT0; recombinant FGF22 thermal shift, SYPRO orange fluorescence; percent of sucrose octasulfate shift, DMSO zero; calls only at 9.99 µM; actives 1.5% (n = 340,000);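 active means melting point raised past a set limit in the mean and every replicate; inconclusive means no clear call; three in four hits are not shown here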
# Target sequence (Q9HCT0 whole entry, looked up): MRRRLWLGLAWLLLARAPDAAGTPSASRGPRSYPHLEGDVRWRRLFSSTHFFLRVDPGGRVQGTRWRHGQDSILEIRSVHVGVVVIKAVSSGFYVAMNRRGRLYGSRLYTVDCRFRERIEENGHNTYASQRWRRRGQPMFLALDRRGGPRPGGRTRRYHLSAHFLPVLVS
# rRNA inh HTS OD600: further read-out of rRNA inh HTS, marked with its call; OD600 change, %; measured here: OD600 growth;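 optical density of the mix in the first replicate; 0 = DMSO median and -100 = no signal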
# rRNA inh HTS RFP: also measured in rRNA inh HTS; calls as there; RFP signal change, %; measured here: RFP humanized mutant strains;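 first replicate; 0 = DMSO median and -100 = no signal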
# An asterisk follows results filed as active; i = inactive; ? = inconclusive; + = active, no number; & = joins results of further samples. Not all compounds are listed, so the mix of outcomes need not match the whole.
cpd | AF4-AF9 inh | rRNA inh HTS | FGF22 binding | rRNA inh HTS OD600 | rRNA inh HTS RFP | SMILES
1 | -0.9 | 7 | i | 8 | 6.9 | CC(=O)OC1CCC2(C)C(CCC3C2CC(=O)C2(C)C3CC(C3CCCC3=O)C2C(C)=O)C1 (stereo not given)
2 | -0.9 | 1 | i | 9 | -4.0 | COCC(=O)N(C)C[C@@H]1Oc2cc(C#Cc3cccnc3)ccc2S(=O)(=O)N([C@@H](C)CO)C[C@@H]1C
3 | -2.8 | -55 | i | -69 | -12 | CC(C)c1ccc(CN2CCC2(C)C(=O)Nc2cnc3ccccc3c2)cc1 (stereo not given)
4 | 4.4 | 2 | i | 12 | -1.0 | CN(C)CC#Cc1ccc([C@@H]2[C@@H](CO)N3CCCCN(C(=O)Nc4ccccc4F)C[C@H]23)cc1
5 | 0.3 | 0 | + | 6 | 0.0 | Cc1ccc(S(=O)(=O)Nc2cccc3c2O[C@H](CN(C)Cc2ccc(C(=O)Nc4ccccc4N)cc2)[C@@H](C)CN([C@@H](C)CO)C3=O)cc1
6 | -2.3 | 10 | i | 24 | -0.2 | N#C[C@H]1[C@@H](c2ccccc2)[C@@H](CO)N1C(=O)c1ccccc1F
7 | -0.9 | -4 | i | -3 | -2.5 | O=C(C[C@H]1C=C[C@H](NS(=O)(=O)c2ccc(F)cc2)[C@H](CO)O1)N1CCN(c2ccccc2)CC1
8 | 10 | 12 | i | 8 | -6.7 | O=C1C=C(C2OC(CO)C(O)C2O)C(=O)N1 (stereo not given)
9 | -3.6 | 0 | i | -1 | -0.8 | CNC[C@@H]1Oc2ccc(NS(=O)(=O)c3c(C)noc3C)cc2C(=O)N([C@@H](C)CO)C[C@@H]1C
10 | -1.2 | 3 | i | 13 | -0.5 | O=C(NCC1CC1)[C@H]1[C@H](CO)[C@H]2Cn3c(ccc(-c4cccnc4)c3=O)[C@H]2N1Cc1cocn1
11 | -16 | -8 | i | -14 | 6.2 | C[C@@H]1CN([C@@H](C)CO)C(=O)c2cc(NC(=O)Nc3cccc4ccccc34)ccc2O[C@H]1CN(C)Cc1ccc2c(c1)OCO2
12 | -2.8 | 5 | i | 10 | 0.8 | CNC[C@H]1Oc2ccc(NC(=O)Cc3ccccc3)cc2C(=O)N([C@H](C)CO)C[C@@H]1C
13 | 0.0 | 4 | i | 6 | 2.8 | CCOc1ncccc1C(=O)OCc1csc(CC(=O)Nc2ccccc2C)n1
14 | -5.0 | -1 | i | 0 | -0.2 | CCCC#Cc1cnc2c(c1)C(=O)N([C@H](C)CO)C[C@@H](C)[C@@H](CN(C)C(=O)Nc1c(C)noc1C)O2
15 | -0.8 | -5 | i | -18 | -1.3 | C[C@@H]1CN([C@H](C)CO)C(=O)c2cc(NC(=O)Nc3ccc(F)cc3)ccc2O[C@@H]1CN(C)S(=O)(=O)c1ccccc1
16 | 1.8 | -3 | i | 6 | 3.0 | COc1ccc(CN2C[C@H](C)[C@@H](OC)CN(C)C(=O)c3cc(NC(=O)c4nc5ccccc5s4)ccc3OC[C@H]2C)cc1
17 | -2.5 | 7 | i | 12 | -4.7 | CCCCNC(=O)c1nc(C2CCN(S(=O)(=O)c3ccccc3)CC2)oc1-c1cccc(C(F)(F)F)c1
18 | -0.4 | 8 | i | 14 | -2.3 | CN1CCN(c2ncnc3c2ncn3[C@H]2CN(Cc3cccnc3)C[C@@H](CO)O2)CC1
19 | 3.4 | -9 | i | -17 | -1.9 | CCOC(=O)c1sc2nc(OCCN3CCOCC3)cc(C)c2c1N
20 | -0.4 | -1 | i | 19 | -2.2 | O=C(Oc1ccc(=O)[nH]n1)c1ccccc1
21 | 1.7 | -4 | i | -5 | -3.6 | Cc1noc(C)c1NC(=O)Nc1cccc2c1O[C@@H](CN(C)C(=O)Nc1ccc(C(F)(F)F)cc1)[C@@H](C)CN([C@@H](C)CO)C2=O
22 | -10 | 1 | i | 4 | -3.8 | CCNC(=O)C1(C)CCN(C(=O)c2ccc(OC)c(OC)c2)C1 (stereo not given)
23 | -0.3 | 3 | i | 2 | -0.9 | O=C(N[C@H]1CC[C@@H](CC(=O)N2CCCCC2)O[C@@H]1CO)c1ccc2c(c1)OCO2
24 | -5.5&-2.3 | 3&-2 | i | 6&1 | -5.3&-2.8 | C[C@H]1CN([C@@H](C)CO)C(=O)CCCn2nncc2CO[C@H]1CN(C)C(=O)Nc1ccccc1
25 | -1.5 | -11 | i | -7 | -1.3 | Cc1cc(Cl)ccc1OCCCC(=O)Nc1cc(S(=O)(=O)N2CCOCC2)ccc1N1CCOCC1
26 | 4.6 | 9 | i | 14 | -0.8 | COC1OCC(O)C(NC(=O)N(C)N=O)C1O (stereo not given)
27 | -2.6 | 2 | i | 5 | -0.5 | CCCNC(=O)N[C@@H]1C=C[C@H](CC(=O)N2CCN(C)CC2)O[C@H]1CO
28 | -3.7 | 15 | i | 36 | 3.1 | CCC(Sc1nc2ccsc2c(=O)n1Cc1ccc(C(=O)O)cc1)C(=O)Nc1cc(Cl)ccc1C (stereo not given)
29 | 1.5 | 0 | i | -3 | -2.0 | Cc1ccc(S(=O)(=O)Nc2ccccc2F)cc1C(=O)NCc1ccco1
30 | 2.1 | 1 | i | -1 | 0.2 | C[C@H]1CN([C@@H](C)CO)C(=O)c2cccc(NC(=O)c3ccncc3)c2O[C@H]1CN(C)CC1CCCCC1

# 14 of these compounds in another layout.
item | Molecule | AF4-AF9 inh | rRNA inh HTS | FGF22 binding | rRNA inh HTS OD600 | rRNA inh HTS RFP
16 | COc1ccc(CN2C[C@H](C)[C@@H](OC)CN(C)C(=O)c3cc(NC(=O)c4nc5ccccc5s4)ccc3OC[C@H]2C)cc1 | 1.8 | -3 | i | 6 | 3.0
17 | CCCCNC(=O)c1nc(C2CCN(S(=O)(=O)c3ccccc3)CC2)oc1-c1cccc(C(F)(F)F)c1 | -2.5 | 7 | i | 12 | -4.7
18 | CN1CCN(c2ncnc3c2ncn3[C@H]2CN(Cc3cccnc3)C[C@@H](CO)O2)CC1 | -0.4 | 8 | i | 14 | -2.3
19 | CCOC(=O)c1sc2nc(OCCN3CCOCC3)cc(C)c2c1N | 3.4 | -9 | i | -17 | -1.9
20 | O=C(Oc1ccc(=O)[nH]n1)c1ccccc1 | -0.4 | -1 | i | 19 | -2.2
21 | Cc1noc(C)c1NC(=O)Nc1cccc2c1O[C@@H](CN(C)C(=O)Nc1ccc(C(F)(F)F)cc1)[C@@H](C)CN([C@@H](C)CO)C2=O | 1.7 | -4 | i | -5 | -3.6
22 | CCNC(=O)C1(C)CCN(C(=O)c2ccc(OC)c(OC)c2)C1 (stereo not given) | -10 | 1 | i | 4 | -3.8
23 | O=C(N[C@H]1CC[C@@H](CC(=O)N2CCCCC2)O[C@@H]1CO)c1ccc2c(c1)OCO2 | -0.3 | 3 | i | 2 | -0.9
24 | C[C@H]1CN([C@@H](C)CO)C(=O)CCCn2nncc2CO[C@H]1CN(C)C(=O)Nc1ccccc1 | -5.5&-2.3 | 3&-2 | i | 6&1 | -5.3&-2.8
25 | Cc1cc(Cl)ccc1OCCCC(=O)Nc1cc(S(=O)(=O)N2CCOCC2)ccc1N1CCOCC1 | -1.5 | -11 | i | -7 | -1.3
26 | COC1OCC(O)C(NC(=O)N(C)N=O)C1O (stereo not given) | 4.6 | 9 | i | 14 | -0.8
27 | CCCNC(=O)N[C@@H]1C=C[C@H](CC(=O)N2CCN(C)CC2)O[C@H]1CO | -2.6 | 2 | i | 5 | -0.5
28 | CCC(Sc1nc2ccsc2c(=O)n1Cc1ccc(C(=O)O)cc1)C(=O)Nc1cc(Cl)ccc1C (stereo not given) | -3.7 | 15 | i | 36 | 3.1
29 | Cc1ccc(S(=O)(=O)Nc2ccccc2F)cc1C(=O)NCc1ccco1 | 1.5 | 0 | i | -3 | -2.0

# Next part:
cpd | AF4-AF9 inh | rRNA inh HTS | FGF22 binding | rRNA inh HTS OD600 | rRNA inh HTS RFP | SMILES
31 | -2.4 | 6 | i | 10 | 0.6 | C[C@H]1CN([C@@H](C)CO)C(=O)c2cccc(NC(=O)C3CC3)c2O[C@H]1CN(C)CC1CC1
32 | -2.5 | -5 | i | -31 | -3.4 | C/C(=N\NC(=O)c1ccccc1-n1cccc1)c1ccccn1
33 | -2.4 | -2 | i | -4 | -1.7 | Cc1noc(C)c1NC(=O)N(C)C[C@H]1OCCCC[C@H](C)Oc2ccc(NC(=O)Nc3ccc(F)cc3)cc2C(=O)N([C@H](C)CO)C[C@@H]1C
34 | 8.3 | -9 | i | -15 | -0.3 | CN(C)c1ccc(CC(=O)N2CCCC(c3cc(C(=O)Nc4ccc(C(C)(C)C)cc4)no3)C2)cc1 (stereo not given)
35 | 2.3 | 1 | i | -5 | -3.1 | C[C@@H]1CN([C@H](C)CO)C(=O)c2cccc(NS(=O)(=O)c3ccc(Cl)cc3)c2O[C@H]1CN(C)C(=O)Nc1cccc2ccccc12
36 | -4.9 | 1 | i | -2 | -3.5 | CNC[C@@H]1Oc2ccc(NC(=O)C3CCCCC3)cc2C(=O)N([C@@H](C)CO)C[C@@H]1C
37 | -14 | 2 | i | 2 | -2.8 | COc1ccccc1S(=O)(=O)N[C@@H]1C=C[C@H](CC(=O)N2CCCCC2)O[C@@H]1CO
38 | ? | 1 | i | -3 | 1.6 | O=C(Cc1ccncc1)N[C@H]1CC[C@H](CCn2cc(-c3ccccc3F)nn2)O[C@@H]1CO
